NPYLR7 agonist: agonists of mosquito NPYLR7 receptor, primary screen, cell-based, Aedes aegypti, calcium fluorescence, mosquito biting behavior. Aedes aegypti neuropeptide Y-like receptor 7 (NPYLR7). hit rate 0.15% among 270,000. HEK293T NPYLR7/Galpha15, GCaMP6s calcium fluorescence. activation, % at 10 µM; in the data active means activation above about 40%;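 further: 0% = vehicle and 100% = reference agonist at the receptor; some compounds past the cut are filed as inactive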
NPYLR7 agonist max-min: second read-out of NPYLR7 agonist, no call of its own (marks repeat the call); activation, %; measured here: Max-Min RFU normalised activation; some inactives read as strong as hits;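 span of the calcium signal over five minutes; 0% = vehicle and 100% = native peptide agonist; compound fluorescence can raise it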
* marks the source's active call; other numbers are inactive results; & = joins results of further samples. Only part of the results is shown; count on the stated rates, not on these rows.

SMILES	NPYLR7 agonist	NPYLR7 agonist max-min
O=C(c1ccccc1-c1ccc(C(F)(F)F)cc1)N(CCCO)CC1CC1(c1ccccc1)c1ccccc1 (stereo not drawn)	-16	-25
Cc1ccccc1CSc1nnc(CNC(=O)Nc2cccc(Br)c2)n1-c1cc(Cl)ccc1Cl	0	18
COc1cc(NCc2cc(CC(C)C)no2)ncn1	-1	-2
COc1ccccc1/C=C1\SC(=S)N(C(CCSC)C(=O)O)C1=O (stereo not drawn)	0	-7
CCCN(CC(=O)Nc1ccc(N2CCN(C(=O)NC(C)(C)C)CC2)cc1)C(=O)C1CCC1	9	6
COc1ccc(C)c2sc(N(Cc3cccnc3)C(=O)C3CCCCC3)nc12	-16	-14
COc1cccc(C(=O)NC2CCN(c3ccccc3C(=O)NC3CCCc4ccccc43)CC2)c1 (stereo not drawn)	-2	2
Cc1ccc(-n2[nH]c(-c3ccccc3)c(-c3ccc(NC(=O)c4ccccc4)cc3)c2=O)cc1	13	12
NN1C(=O)c2cccc3c([N+](=O)[O-])ccc(c23)C1=O	-2	-4
COc1ccccc1N1CCN(C(=O)c2ccccc2C)CC1	-12	-16
Cc1ccccc1-n1cnnc1SCc1nc(-c2ccccc2)no1	-16	-16
O=C(CCN(c1nc(-c2cccs2)nc2ccccc12)C1CCCCC1)N1CCN(c2ccccc2F)CC1	15	22
O=C(Cn1nnc(-c2ccccc2)n1)NC1CC1	-1	-4
O=C(CCC1CCCCC1)NCCn1nc(-c2cccs2)ccc1=O	0	-3
COc1ccc(-c2nn(-c3ccccc3)cc2CN2CCN(c3cnccn3)CC2)c(F)c1	10&-2	-2&-6
COc1ccc(CCOc2nc(-c3cccs3)n(-c3ccc(NC(=O)c4cccs4)cc3)n2)cc1	16	22
CCCc1ccc(S(=O)(=O)N2CCN(CCCOC(c3ccc(Cl)cc3)c3ccc(Cl)cc3)CC2)cc1	4	2
CC1C(=O)N(c2ccc3c(c2)OCO3)CCN1C(=O)CCc1ccccc1 (stereo not drawn)	19	12
Cc1nc(C(=O)N2CC(Oc3c(C)cccc3C)C2)cs1	5	1
COC(=O)c1cc(-c2ccc3c(c2)CC(C)O3)on1 (stereo not drawn)	-7	-7
CCOc1ccc(OCCCCOc2ccc([N+](=O)[O-])cc2)cc1	-5	-5
O=C(Nc1nccs1)c1cccn(OCc2cccc([N+](=O)[O-])c2)c1=O	-1	6
CC(=O)OCC1C2(C)CCC(O2)C1(C)COC(C)=O (stereo not drawn)	-3	-3
CCc1ccccc1NC(=O)N(CC(=O)N(Cc1cccn1C)CC(C)C)C1CC1	-5	-1
CCc1cc(-n2ccnc2-c2cccnc2)ccc1NC(C)=O	18	11

Rewritten field by field: 4 of the compounds above
O=C(CCC1CCCCC1)NCCn1nc(-c2cccs2)ccc1=O
  NPYLR7 agonist = 0
  NPYLR7 agonist max-min = -3
COc1ccc(-c2nn(-c3ccccc3)cc2CN2CCN(c3cnccn3)CC2)c(F)c1
  NPYLR7 agonist = 10&-2
  NPYLR7 agonist max-min = -2&-6
COc1ccc(CCOc2nc(-c3cccs3)n(-c3ccc(NC(=O)c4cccs4)cc3)n2)cc1
  NPYLR7 agonist = 16
  NPYLR7 agonist max-min = 22
CCCc1ccc(S(=O)(=O)N2CCN(CCCOC(c3ccc(Cl)cc3)c3ccc(Cl)cc3)CC2)cc1
  NPYLR7 agonist = 4
  NPYLR7 agonist max-min = 2

Next entries:
SMILES	NPYLR7 agonist	NPYLR7 agonist max-min
CCc1nc2ccc(C(=O)NCc3ccc(N(C)C)cc3)cn2c1N(CC)Cc1cccc(Br)c1	15	12
CSc1cc(C)c2c(c1)COC1(CCN(C(=O)CC3(CC(=O)O)CCCC3)CC1)O2	-5	-12
Cc1c(C(C)NC2CCN(c3ccc4c(c3)OCO4)CC2)cnn1-c1ccccc1 (stereo not drawn)	14	0
CCN(CCN1CCOCC1)C(=O)c1ccc(F)cc1Cl	-5	-7
CCC(C(=O)N(Cc1ccco1)Cc1cc(NC(=O)C2CCCC2)ccc1N(C)C)c1ccccc1 (stereo not drawn)	0	10
CCCC(=O)N1CCC1(C)C(=O)Nc1cc(OC)c(OC)c(OC)c1 (stereo not drawn)	5	0
Cc1c(Cl)cccc1NC(=O)CC(=O)N(C)Cc1csc(C(C)C)n1	-3	-11
Cc1c(Cl)ccc2sc(Cl)nc12	-15	-20
O=C1c2ccccc2C(=O)c2c(I)cccc21	4	3
O=C(/C=C/c1cnccn1)Nc1nc(-c2ccc(F)c(Cl)c2)cs1	11	9
CCCCCNC(=O)c1cccnc1SCCC	-22	-27
N#Cc1ccc(C(=O)N(CCN2CCOCC2)c2nc3ccc(Cl)cc3s2)cc1	15	11
COc1cc(OC)cc(C(=O)N2CCN(c3nc(C)nc(C)c3Cc3cccc(C(F)(F)F)c3)CC2)c1	2	10
CC(C)(C)/[N+]([O-])=C/c1ccc(S(=O)(=O)O)cc1S(=O)(=O)O	-10	-13
O=C(c1cc(C(c2ccccc2)c2ccccc2)no1)N1CCC(Oc2ccc(F)cc2)CC1	17	5
COc1cccc(C(=O)N2C(C(=O)O)COC23CCN(C(=O)Cc2ccccc2)CC3)c1 (stereo not drawn)	3	12
CCOc1ccc(CN(C)C(=O)COC(=O)c2nccnc2N)cc1	1	0
COc1ccc(Cc2noc(CN3CCN(c4cc(Cl)ccc4C)CC3)n2)cc1OC	-3	-3
COc1cccc(CC2CN(C(=O)CCc3n[nH]c(C)c3C)CCO2)c1 (stereo not drawn)	4	2
COc1ccc(OCc2cc(C(=O)NCCN3CCCC(O)C3)no2)c(Cl)c1 (stereo not drawn)	-5	-6
O=C1C(Sc2ncn[nH]2)=CC(=NS(=O)(=O)c2ccccc2)c2ccccc21	9&-1	7&-2
COc1ccc(F)c(CN2CCCC(O)(CNCc3ccon3)C2=O)c1 (stereo not drawn)	28	10
COc1ccc(NC(=O)c2cn(-c3cc(N4CCCCC4)ncn3)cn2)cc1F	-8	-10
O=C(NCc1ccc(-c2ncc(-c3ccc(F)cc3)[nH]2)cc1)c1cc(Cl)ccc1F	-7	-12
Cc1ccc(NC(=O)NNC(=O)Cn2nc(-c3ccccc3)c(-c3ccccc3)c(C#N)c2=O)cc1	11	6
Remaining list, next part.
SMILES	NPYLR7 agonist	NPYLR7 agonist max-min
CNS(=O)(=O)c1cc(C(=O)NC2CC(C)(C)NC(C)(C)C2)cc(C)c1C	11	7
O=C(CC1C=CCC1)NC1CCc2[nH]c3cc(Cl)cc(Cl)c3c2C1 (stereo not drawn)	14	8
COc1cc(-c2ccc3c(c2)COC2(CCN(C(=O)c4ccc(C)c(F)c4)CC2)O3)cc(OC)c1OC	1	-9
O=c1[nH]c2c(Br)c(Br)c(Cl)cc2o1	-2	-4
Cc1cc(C)cc(N2CCC(NCC3CC(=O)N(C4CCCC4)C3)CC2)c1 (stereo not drawn)	-4&3	-5&0
CCOc1cc(Br)cc(C(=O)Nc2cccc(-c3nc4ccc(C)cc4o3)c2)c1O	-9	3
CCOc1ccc2[nH]c(=O)c(CN3CCCCC3c3nc(C)no3)cc2c1 (stereo not drawn)	21	14
Cc1cccc(C(=O)N2CCSC23CCN(C(=O)Nc2cc(C(F)(F)F)cc(C(F)(F)F)c2)CC3)c1	-10	-10
CC1CN(C(=O)c2cc(S(=O)(=O)Nc3ccccc3F)c(Cl)cc2Cl)CC(C)O1 (stereo not drawn)	1	3
CC(Sc1nnc(-c2cccc(S(=O)(=O)N3CCOCC3)c2)n1C1CCCC1)c1ccccc1 (stereo not drawn)	4	6
Cc1cnc(NC(=O)CN2C(=O)c3cc(Cl)c(Cl)cc3C2=O)s1	2	-4
COc1cc(C(=O)Nc2cccc(-c3nc4ccccc4c(=O)o3)c2)cc(OC)c1OC	-9	-15
Cc1cc2nc(NC(=O)C3(C)CCN(C(C)C)C3)[nH]c2cc1C (stereo not drawn)	0	-3
O=C(Nc1cccc(-c2ccco2)c1)C1CCN(Cc2ccsc2)CC1	4	3
O=C(CSc1nnc2n1CCCCC2)N1CCN(c2cccc(C(F)(F)F)c2)CC1	6	7
CC(c1ccccc1)N(Cc1cccc(C(F)(F)F)c1)Cc1nc(C(=O)NCc2cccnc2)co1 (stereo not drawn)	21	35
COC(=O)CN1CCN(CCC(=O)Nc2sc(C(=O)OC)c(C)c2C(=O)OC)CC1	-1	22
CC(=O)N1CCN(c2nc(C)nc3sc(C)c(C)c23)CC1	8	16
COc1ccc(C(=O)N2CC(=O)N(CC3(O)CCCC3)CC(C)(C)C2)cc1OC	25	36
CC(C)CN(CC(=O)N(CCc1c[nH]c2ccccc12)Cc1ccccc1)C(=O)Nc1cccc(Cl)c1Cl	-5	4
Cc1cc(Oc2cc(N3CCN(C(=O)c4cccs4)CC3)ncn2)ccc1Cl	12	11
O=C(NCCCc1cccnc1)c1ccc2nc(Cc3cccc(Cl)c3)oc2c1	10	1
CCOCCn1c(=NC(=O)c2ccccc2S(C)(=O)=O)sc2cccc(F)c21	-3	-4
O=C(CCn1cc(Cl)cn1)N1CCCC(O)(CO)CC1 (stereo not drawn)	8	4
COc1ccc(F)c(CN2CCCC3(CCN(Cc4cccn4-c4cccnc4)C3)C2)c1 (stereo not drawn)	-1	-7

Whole records, quoted from the list. Values in the order: NPYLR7 agonist, NPYLR7 agonist max-min
Cc1cc2nc(NC(=O)C3(C)CCN(C(C)C)C3)[nH]c2cc1C (stereo not drawn) in the list: 0, -3
COc1cc(-c2ccc3c(c2)COC2(CCN(C(=O)c4ccc(C)c(F)c4)CC2)O3)cc(OC)c1OC in the list: 1, -9
Cc1cnc(NC(=O)CN2C(=O)c3cc(Cl)c(Cl)cc3C2=O)s1 in the list: 2, -4
CC(C)CN(CC(=O)N(CCc1c[nH]c2ccccc12)Cc1ccccc1)C(=O)Nc1cccc(Cl)c1Cl in the list: -5, 4
CC(Sc1nnc(-c2cccc(S(=O)(=O)N3CCOCC3)c2)n1C1CCCC1)c1ccccc1 (stereo not drawn) in the list: 4, 6

Continuation.
SMILES	NPYLR7 agonist	NPYLR7 agonist max-min
O=C(c1cccc(C(F)(F)F)c1)N1CCN(C(c2ccccc2)c2ccc(Cl)cc2)CC1 (stereo not drawn)	-3	5
CC(=O)Nc1cccc(C(C)N(Cc2ccccc2)C(=O)c2cccs2)c1 (stereo not drawn)	5	3
CCc1ccc(OS(=O)(=O)c2cn(C)c(=O)n(C)c2=O)cc1	0	-3
COc1ccc(-c2cc(C(N)=O)ccn2)c(OC)c1OC	6	1
CCn1cc(SCC(=O)N2CCOC(C(F)(F)F)C2)c2ccccc21 (stereo not drawn)	10	7
O=C(CSc1ccccc1)NC1CCCN(C2Cc3ccccc3C2)C1 (stereo not drawn)	20	11
CCc1nc(N2CCN(C(=O)c3cccs3)CC2)c2c3c(sc2n1)CCCC3	0	3
COc1cc(S(=O)(=O)N2CCCC2)c(OC)cc1C	15	11
COC(=O)c1ccccc1C=C1N=C(c2ccccc2)OC1=O	4	0
CC1CCCCN1CCN(C)Cc1ncc[nH]1 (stereo not drawn)	4	2
COc1ccccc1C(=O)N1CCC2(CC1)NC(=O)c1ccccc1N2	15	18
CC1CCN(c2ccc(NC(=O)Nc3ccc(C#N)cc3)cc2C(=O)NC(C)c2ccccc2)CC1 (stereo not drawn)	1	-5
COc1cccc(CC2CN(C(=O)c3ccc(Cn4ccnc4)o3)CCO2)c1 (stereo not drawn)	8	5
CCc1cc(C(=O)NCc2ccc(C(=O)N(C)C)cc2)sc1C	2	0
COc1ccc2c(-c3ccccc3)cc(SCCO)nc2c1	9	8
CCSC1(CNC2CCN(CC(F)(F)F)C2)CCOCC1 (stereo not drawn)	0	-1
CCc1ccc(CN(C)C(=O)c2cc(COc3ccc(OC)cc3Cl)on2)nc1	21	11
COc1cc(Cl)ccc1NC(=O)c1cnn2c(C(F)(F)F)cc(-c3ccc(F)cc3)nc12	5	4
O=C(CSc1nc2c(c(=O)n1CCc1ccccc1)SCC2)N1CCN(c2ccccc2)CC1	6	-7
CCn1c(SCc2c(F)c(F)c(OC)c(F)c2F)nnc1-c1c2c(nc3ccccc13)CCC2	-2	3
CC=CCn1c(=O)c2c(nc3n(CCCN4CCOCC4)c(C)cn23)n(C)c1=O	-1	5
CCc1ccc(CNC(=O)c2ccc(Cl)s2)s1	10	8
COc1ccc(Cl)cc1Cn1c(C)c(C(=O)NCc2ccc3c(c2)OCO3)sc1=O	14	4
CC1CCCCN1c1onc(-c2ccccc2)c1CN(CCN1CCOCC1)C(=O)c1ccc(F)cc1 (stereo not drawn)	9	11
CCOC(=O)N1CCC(=NNC(=O)NC2CCCCC2)CC1	2	1
CN(C)c1ccc(NC(=O)Cn2nnc(-c3ccccc3)n2)cc1	17	14
CCC(c1nc(C2CC2)nn1-c1ccc2c(c1)OCCO2)n1cccn1 (stereo not drawn)	0	-3
Cc1ccc(Nc2nc(Nc3ccc(F)cc3)nc3nccnc23)cc1Cl	2	5
CC(C)(C)OC(=O)C1(NCC(=O)NCc2cccs2)CCCC1	2	-1

Assay outcomes: PubChem BioAssay, Fisher Drug Discovery Resource Center
